Calb FLC: C. albicans growth modulation with fluconazole | hit rate 0.57% among 300,000 | growth inhibition, % (no concentration beside the values) | C. albicans CaCi-2 (fluconazole-resistant clinical isolate) + fluconazole, Alamar Blue growth, 48 h;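 active = most replicates above 75%; inconclusive = exactly half above 75%; inactive = most below 75%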;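 also: all wells also contain fluconazole at 8 µg/ml as a sub-toxic cotreatment; 0% = median of DMSO wells and 100% = median of geldanamycin control wells; wells of about 8 µL received 7.5 nL stock; the first replicate is given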
RanGTP-Impb inh: inhibitors of RanGTP-importin-beta interaction, primary screen, biochemical, FRET, CFP-Ran, YFP-importin-beta, homogeneous. cell-free CFP-Ran/YFP-importin-beta FRET ratio. inhibition, % (concentration not given with the values). hit rate 1.1% among 300,000. AID 2216;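 active = most replicates above 15%; inconclusive = exactly half above 15%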;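 also: 0% = DMSO wells and 100% = Ran loaded with GDP instead of GTP; wells of about 40 µL received 100 nL stock; the first replicate is given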
ALR inh: blocks human ALR sulfhydryl oxidase activity; inhibition, % (no concentration beside the values); purified ALR, DTT oxidation, H2O2 HRP-luminol luminescence; AID 485317; hit rate 3.8% among 290,000;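 active = mean and each replicate at 75% or more; inconclusive = only one of the two met; inactive = neither met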;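 also: stock transfer was 7.5 nL into about 7.5 µL; 0% = neutral wells and 100% = wells with inactivated enzyme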
Target sequence (P55789 whole entry, looked up): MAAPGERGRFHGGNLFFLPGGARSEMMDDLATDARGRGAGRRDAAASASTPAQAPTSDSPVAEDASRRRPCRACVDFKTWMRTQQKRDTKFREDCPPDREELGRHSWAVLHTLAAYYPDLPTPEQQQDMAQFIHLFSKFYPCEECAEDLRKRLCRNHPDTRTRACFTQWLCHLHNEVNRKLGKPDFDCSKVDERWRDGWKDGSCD
rRNA inh HTS: inhibitors of bacterial rRNA selective over humanized ribosomes; E. coli WT GFP vs humanized-ribosome RFP mutants, fluorescence, 24 h; active compounds read low; DMSO median 0, no signal -100; GFP signal change (wild-type ribosome), % (no concentration beside the values); hit rate 1.6% among 350,000;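 active = significant combined selectivity score with lowered wild-type GFP, culture density cut under 30%, mutant RFP and density less affected; inactive = any of these conditions unmet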; also: one replicate is shown; some compounds called inactive have numbers as strong as hits
T cruzi repl: T. cruzi replication inhibition; T. cruzi beta-gal in NIH3T3, luminescence, 90 h; inhibition, % (concentration not given with the values); hit rate 1.4% among 300,000; AID 1885;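 active = mean inhibition across valid replicates above about 55%, limit read from the data; inconclusive = mean below that limit but half or more replicates reach it; inactive = mean below it, under half of replicates reach it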;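 also: signal also drops with host cell toxicity which is not excluded here; 0% = plate median of DMSO wells and 100% = zero luminescence signal; higher percent means less beta-gal luminescence so fewer parasites; stock transfer was 50 nL into about 50 µL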
Beta apoptosis: blocks beta cell apoptosis; AID 435005; INS-1E cytokine-induced death, ATP luminescence, 48 h; percent of positive-control rescue, neutral wells zero; protection from apoptosis, % (test concentration not listed); hit rate 0.8% among 300,000;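 active = all replicates at 75% or more, or half of them and the mean; inconclusive = half reach 75% but not the mean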;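 also: 0% = cytokine-treated negative control wells and 100% = positive control rescue; higher means more ATP so stronger rescue from cytokine killing; wells of about 40 µL received 100 nL stock; the first replicate is given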
AF4-AF9 inh: MLL-AF4/AF9 protein interaction inhibition. AlphaScreen, biotin-AF4 peptide binding to FLAG-AF9. inhibition, % at 10 µM. hit rate 0.47% among 350,000. AID 651704;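 active = every replicate reaching a set inhibition limit, whatever the replicate mean, cut at about 25% in these data; inconclusive = mean inhibition reaches that limit but some replicates miss it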;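 also: 0% = plate neutral control median and 100% = total signal loss; the record names both 10 and 1 µM as test concentration; the first replicate is given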
Target sequence (P42568 whole entry, looked up): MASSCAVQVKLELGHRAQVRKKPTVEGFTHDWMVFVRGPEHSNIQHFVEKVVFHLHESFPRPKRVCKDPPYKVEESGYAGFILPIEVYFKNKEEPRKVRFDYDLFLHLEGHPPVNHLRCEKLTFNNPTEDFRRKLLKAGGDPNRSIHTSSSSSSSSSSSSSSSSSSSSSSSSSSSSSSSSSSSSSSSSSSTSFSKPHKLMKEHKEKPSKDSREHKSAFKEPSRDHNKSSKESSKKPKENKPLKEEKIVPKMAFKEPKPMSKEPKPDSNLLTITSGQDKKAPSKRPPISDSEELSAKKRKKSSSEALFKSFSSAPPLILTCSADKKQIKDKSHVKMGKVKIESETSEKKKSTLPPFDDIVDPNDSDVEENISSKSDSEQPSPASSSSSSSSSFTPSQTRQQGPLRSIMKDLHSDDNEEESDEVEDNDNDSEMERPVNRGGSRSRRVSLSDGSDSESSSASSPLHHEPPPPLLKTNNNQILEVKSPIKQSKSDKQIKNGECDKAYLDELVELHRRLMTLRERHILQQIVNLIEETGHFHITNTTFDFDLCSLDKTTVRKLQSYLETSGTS
FGF22 binding: binders of recombinant human FGF22 by thermal shift. Q9HCT0. SYPRO orange fluorescence; percent of sucrose octasulfate shift, DMSO zero. calls only at 9.99 µM. hit rate 1.5% among 340,000;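 active = melting point raised past a set limit in the mean and every replicate; inconclusive = no clear call; three in four hits are not shown here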
Target sequence (Q9HCT0 whole entry, looked up): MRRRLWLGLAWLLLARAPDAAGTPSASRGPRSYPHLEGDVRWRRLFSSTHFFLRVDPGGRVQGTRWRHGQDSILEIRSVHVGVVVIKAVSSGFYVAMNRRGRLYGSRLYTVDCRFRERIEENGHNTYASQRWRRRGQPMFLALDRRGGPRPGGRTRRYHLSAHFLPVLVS
rRNA inh HTS OD600: recorded beside rRNA inh HTS, whose call it bears; OD600 change, %; measured here: OD600 growth;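 optical density of the mix in the first replicate; 0 = DMSO median and -100 = no signal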
rRNA inh HTS RFP: further read-out of rRNA inh HTS, marked with its call; RFP signal change, %; measured here: RFP humanized mutant strains;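 first replicate; 0 = DMSO median and -100 = no signal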
Active calls of the source: *; i = inactive; ? = inconclusive; / = no result given. These rows are one share of the data; rates above refer to the full screens.

Under each structure: Calb FLC | RanGTP-Impb inh | ALR inh | rRNA inh HTS | rRNA inh HTS OD600 | rRNA inh HTS RFP | T cruzi repl | Beta apoptosis | AF4-AF9 inh | FGF22 binding
CCOc1ccc(C(C(=O)NCCOC)N(CCOC)C(=O)CCC(=O)Nc2ccccn2)cc1 (stereo not drawn)
    -10 | -4.6 | / | -4 | 2 | -1.0 | -6 | -4 | 2.0 | i
COc1ccc2oc(C(=O)N(C)CCOc3ccccc3)c(C)c2c1
    2 | -0.8 | -4 | 0 | -14 | 3.4 | 3 | -5 | -0.2 | i
O=C1C(Cl)=C(Nc2ccccc2O)C(=O)N1c1ccccc1
    9 | 0.2 | 67 | / | / | / | -12 | -3 | / | /
Cc1ccccc1C(=O)NC(C)c1ccc2c(c1)CCCC2 (stereo not drawn)
    -3 | -0.5 | -7 | / | / | / | 6 | 7 | / | /
Cc1cccc(NS(=O)(=O)c2cc(C(=O)OC(C)C(=O)NCc3ccc4c(c3)OCO4)ccc2C)c1 (stereo not drawn)
    -3 | 3.8 | -14 | 2 | 0 | -2.0 | -1 | 2 | -2.3 | i
CC(=O)c1c(C)[nH]c(C(=O)Nc2ccc(C)cc2Br)c1C
    0 | -0.1 | -1 | 10 | 8 | 1.7 | 4 | 1 | 1.3 | i
CCOC(=O)N1CCN(c2c(NCCN3CCN(c4ccccc4F)CC3)c(=O)c2=O)CC1
    18 | 2.6 | / | 7 | 4 | 0.5 | -11 | -6 | -1.5 | i
Cc1ccc(S(=O)(=O)N2CCOCC2)cc1NC(=O)CSc1nc(N)cc(=O)[nH]1
    -3 | -0.7 | 20 | 14 | 5 | -6.0 | -15 | 2 | 4.7 | i
Cc1ccccc1Cn1nc(C)c(NC(=O)/C=C/c2cnn(C)c2)c1C
    -6 | 0.5 | -67 | / | / | / | -13 | -9 | / | /
OC(CNc1ccccc1)COc1ccc(OCC(O)CNc2ccccc2)cc1 (stereo not drawn)
    13 | 5.8 | 29 | / | / | / | 63* | 36 | / | /
COC(=O)c1sc(NC(=O)C2CCCO2)c(C(=O)OC)c1C (stereo not drawn)
    14 | -2.2 | 0 | / | / | / | 9 | 0 | / | /
CC(=O)Nc1ccc2c(c1)C(C)(C)C(C)N2C (stereo not drawn)
    20 | ? | 99* | -25 | -5 | 66 | 44 | 18 | 10 | i
CCC(C)(C(=O)Nc1ccc2c(c1)OCCO2)N(C(C)=O)c1ccc(C(N)=O)cc1 (stereo not drawn)
    4 | -0.8 | -4 | / | / | / | 2 | -3 | / | /
Cc1ccc(S(=O)(=O)N2CCC(=O)N(CCOC(=O)Nc3cccc(Cl)c3)CC2)cc1
    9 | 2.7 | -13 | -43 | -70 | -12 | 1 | 9 | -0.9 | i
CCc1nnc(NC(=O)c2ccc(-c3ccc(F)cc3)o2)s1
    3 | 2.3 | -2 | 5 | 11 | 0.9 | 5 | -7 | -2.9 | i
O=C(NCCNC(=O)C(F)(F)F)c1ccncc1
    4 | 0.8 | -7 | / | / | / | -9 | -2 | / | /
Cc1nn(CC(=O)OC(C)C(=O)Nc2ccccc2[N+](=O)[O-])c(C)c1[N+](=O)[O-] (stereo not drawn)
    31 | -2.3 | -4 | / | / | / | -4 | -6 | / | /
O=C(COc1cccc2ccccc12)NNC(=O)C1CCCO1 (stereo not drawn)
    26 | 6.1 | -13 | / | / | / | -4 | -4 | / | /
CCc1ccc(/C=C2\C(=N)N3N=C(CC(=O)N4CCCCC4)SC3=NC2=O)cc1
    -5 | -0.1 | 5 | 5 | 13 | 0.6 | -4 | 3 | -5.0 | i
Cc1ccc(S(=O)(=O)CCC(=O)OCc2cc(C)ccc2C)cc1
    11 | -2.5 | 1 | -11 | -20 | -0.3 | -8 | -6 | -1.5 | i
Cc1c(Cl)cccc1NS(=O)(=O)c1ccc(-c2ccc(=O)[nH]n2)o1
    16 | 1.4 | -2 | 0 | -18 | -2.9 | -8 | -3 | -1.6 | i
CCNc1nc(NCC)nc(SCCOC(=O)Nc2ccc(Cl)cc2Cl)n1
    -10 | -1.2 | -4 | / | / | / | 4 | 0 | / | /
Cc1ccc(NC(=O)CO/N=C/c2ccc(N(C)C)cc2)cc1
    11 | 0.2 | 26 | 3 | -1 | 0.9 | -17 | 1 | 0.3 | i
CC(C)N1CC(C(=O)Nc2ccc(Cl)c([N+](=O)[O-])c2)CC1=O (stereo not drawn)
    7 | -0.5 | -38 | 9 | 14 | 0.8 | -17 | 2 | -1.7 | i
Cc1ccc(NC(=O)C2CCCN(c3ncnc4c3nc3n4CCCCC3)C2)cc1Cl (stereo not drawn)
    36 | -1.0 | 1 | -18* | 0.3* | -4.2* | -2 | 5 | 1.7 | i
COc1ccc(/C=N/N=C2/NC(=O)C(CC(=O)NC(N)=O)S2)cc1 (stereo not drawn)
    -10 | 0.7 | -5 | 1 | 6 | -3.7 | -6 | -8 | -1.7 | i
COc1cc(C(=O)OC2CC3CCC2(C)C3(C)C)ccc1OC(C)=O (stereo not drawn)
    -1 | 4.6 | -19 | / | / | / | 30 | / | -1.6 | i
COc1ccc(N2CC(C(=O)OCC(=O)Nc3cccc(C)c3C)CC2=O)cc1 (stereo not drawn)
    8 | 0.4 | -7 | 2 | 7 | -1.8 | -3 | -6 | -1.8 | i
COc1ccc(N(CC(=O)NC2CCCC2)C(=O)Cn2nnc(-c3ccc(C)o3)n2)c(OC)c1
    -7 | -1.3 | / | 5 | 10 | 2.0 | 1 | / | 2.6 | i
CCCCN(C(=O)C(C)N1C(=O)c2ccccc2C1=O)c1c(N)n(CC(C)C)c(=O)[nH]c1=O (stereo not drawn)
    / | / | 21 | -1 | 1 | -1.4 | / | -4 | 0.5 | i
CC1(C)CC(N2CN(C3CCCCC3)CC2=O)CC(C)(C)N1
    35 | 2.9 | 0 | / | / | / | -19 | -7 | / | /
C/C(CC(=O)NCc1ccco1)=N\NC(=O)COc1ccc(Cl)cc1Cl
    1 | ? | -4 | -13 | -9 | 2.9 | -3 | 0 | -2.7 | i
Cc1nc(Nc2ccc(C(=O)O)cc2)sc1-c1ccccc1
    -4 | -3.3 | -3 | 3 | -2 | -2.6 | -106 | -6 | 1.0 | i
Cc1nc(C(=O)Nc2cc(Cl)ccc2Cl)nn1-c1cc(OC(C)C)c(Cl)cc1Cl
    1 | 1.0 | -6 | / | / | / | -15 | 5 | / | /
Cc1ccc(C2C(C=Nc3c(C)n(C)n(-c4ccccc4)c3=O)=C(c3ccccc3)Oc3ccccc32)cc1 (stereo not drawn)
    -8 | -2.2 | 2 | 8 | 11 | -6.8 | 33 | 80* | / | /
CCOC(=O)Nc1ccc2nc(N3CCCCCC3)sc2c1
    3 | 0.5 | 11 | -15 | -17 | 3.4 | -9 | 37 | 3.2 | i
Cc1ccc(S(=O)(=O)Oc2ccccc2/C=C2/SC(=O)NC2=O)cc1
    -3 | 0.8 | 7 | -41 | -35 | -14 | 2 | / | / | i
O=C/C(=C\Nc1ccc(Br)cc1)c1nc2ccccc2o1
    16 | -3.2 | -2 | 4 | 8 | 2.0 | -10 | -3 | -0.2 | i
O=C(CSc1nc2cc(Cl)ccc2o1)NC1CC1
    / | / | -5 | -1 | 3 | 1.3 | / | -6 | -1.0 | i
CCn1cc(Cl)c(C(=O)Nc2nc3ccccc3n2CCN2CCCCC2)n1
    -4 | 8.1 | 1 | -2 | 7 | -6.6 | -13 | / | 4.0 | i
CC(NC(=O)C(C)N1CCN(Cc2ccccc2)CC1)c1ccc(F)cc1 (stereo not drawn)
    7 | -2.0 | 2 | 3 | 4 | -1.5 | 15 | -3 | -1.0 | i
CC(=O)c1c(C(=O)O)c2ccccc2[nH]c1=O
    0 | 1.7 | -1 | 12 | 13 | 13 | -12 | 2 | -66 | i
CCn1c(SCC(=O)NC2CCCCC2)nnc1C(CO)NC(=O)c1ccccc1 (stereo not drawn)
    -3 | 3.3 | 1 | 2 | 6 | -0.2 | -4 | -2 | -0.7 | i
Cc1ccc(-n2ncc3c(NCc4cccnc4)ncnc32)c(C)c1
    1 | 3.3 | -2 | / | / | / | -24 | 37 | / | /
O=C(Nc1cccc(S(=O)(=O)N2CCOCC2)c1)c1cc([N+](=O)[O-])ccc1N1CCOCC1
    -2 | -5.9 | 2 | -7 | 0 | -3.9 | 1 | 5 | -2.8 | i

Brought forward from above: 6 entries; new compounds follow.
Under each structure: Calb FLC | RanGTP-Impb inh | ALR inh | rRNA inh HTS | rRNA inh HTS OD600 | rRNA inh HTS RFP | T cruzi repl | Beta apoptosis | AF4-AF9 inh | FGF22 binding
CCn1cc(Cl)c(C(=O)Nc2nc3ccccc3n2CCN2CCCCC2)n1
    -4 | 8.1 | 1 | -2 | 7 | -6.6 | -13 | / | 4.0 | i
CC(NC(=O)C(C)N1CCN(Cc2ccccc2)CC1)c1ccc(F)cc1 (stereo not drawn)
    7 | -2.0 | 2 | 3 | 4 | -1.5 | 15 | -3 | -1.0 | i
CC(=O)c1c(C(=O)O)c2ccccc2[nH]c1=O
    0 | 1.7 | -1 | 12 | 13 | 13 | -12 | 2 | -66 | i
CCn1c(SCC(=O)NC2CCCCC2)nnc1C(CO)NC(=O)c1ccccc1 (stereo not drawn)
    -3 | 3.3 | 1 | 2 | 6 | -0.2 | -4 | -2 | -0.7 | i
Cc1ccc(-n2ncc3c(NCc4cccnc4)ncnc32)c(C)c1
    1 | 3.3 | -2 | / | / | / | -24 | 37 | / | /
O=C(Nc1cccc(S(=O)(=O)N2CCOCC2)c1)c1cc([N+](=O)[O-])ccc1N1CCOCC1
    -2 | -5.9 | 2 | -7 | 0 | -3.9 | 1 | 5 | -2.8 | i
O=C(Nc1cc2c(cc1Br)OCCCO2)c1cccnc1
    4 | -0.5 | 0 | 4 | 5 | 0.9 | -22 | / | -0.1 | i
COc1ccc(Oc2nc3ccccc3nc2C(F)(F)F)cc1
    -4 | -3.0 | -2 | / | / | / | -1 | -3 | / | /
COC(C[C@@H]1O[C@H]1[C@H](O)[C@@H](C)OCc1ccccc1)OC
    -8 | -1.9 | -9 | / | / | / | 0 | -8 | / | /
CCOC(=O)C1CN(S(=O)(=O)c2ccc(OC)cc2)c2ccccc2O1 (stereo not drawn)
    -5 | 5.2 | -1 | -11 | -13 | 6.8 | -5 | -3 | -1.9 | i
COc1cc(CC(=O)Oc2ccc3c(c2)OCO3)cc(OC)c1OC
    -7 | 1.1 | -20 | / | / | / | 0 | 4 | / | /
COc1cccc(-c2nn[nH]n2)c1O
    -3 | 7.3 | 60 | / | / | / | 3 | -3 | / | /
Cc1ccc(Nc2c(N)c(=O)oc3ccccc23)cc1
    -27 | 4.4 | / | / | / | / | -11 | 8 | / | /
Cc1ccn(CCNC(=O)C2CCC(=O)N(Cc3ccc(Cl)cc3)C2)n1 (stereo not drawn)
    -4 | 2.2 | 7 | 2 | 6 | 1.0 | 7 | -1 | 1.6 | i

Assay outcomes (PubChem)
